GIV Gai3 FP – inhibitors of GIV GBA-motif binding to rat Galpha-i3; P08753; Galpha-i3/FITC-GIV peptide fluorescence polarization, 90 min; hits give low values; scaled: aluminum fluoride 0%, vehicle 100%; percent of control (FP), % (no concentration beside the values); 210,000 compounds, 0.42% hits;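 active means replicate mean at 85% of control or lower, very high polarization wells dropped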;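 further: wells of about 15 µL received 100 nL stock; the first replicate is given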
Target sequence (P08753 whole entry, looked up): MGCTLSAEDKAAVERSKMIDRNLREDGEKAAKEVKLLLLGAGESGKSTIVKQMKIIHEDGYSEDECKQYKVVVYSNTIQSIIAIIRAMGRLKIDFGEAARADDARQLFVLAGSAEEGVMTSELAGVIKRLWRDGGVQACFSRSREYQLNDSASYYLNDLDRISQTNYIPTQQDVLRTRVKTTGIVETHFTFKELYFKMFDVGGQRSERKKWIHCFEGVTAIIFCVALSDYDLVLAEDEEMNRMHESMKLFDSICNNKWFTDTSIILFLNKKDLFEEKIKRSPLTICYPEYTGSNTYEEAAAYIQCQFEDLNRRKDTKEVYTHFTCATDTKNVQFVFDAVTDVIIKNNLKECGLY
HCMV NEC inh – inhibitors of HCMV UL50-UL53 nuclear egress complex interaction; HTRF UL50-UL53 interaction, normalized percent inhibition; inhibition, % (test concentration not listed); 190,000 compounds, 0.15% hits; AID 1918969;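 active means both replicates at 50% or more, plus weaker picks with an unusually low signal ratio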;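 further: stock transfer was 100 nL into about 20 µL; 0% = negative control wells and 100% = wells with untagged competitor protein; inactives centre near -12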
Sa growth 42C – S. aureus growth inhibition; relative growth, % (concentration not given with the values); 170,000 compounds, 0.53% hits; S. aureus RN4220 growth, OD600, 20 h, 42 °C; hits give low values;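 active means growth at 42 °C up to 50% and 20 or more points under that at 30 °C, or under 10% at both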;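 further: 300 nL library stock went into each well; scaled to the means of positive and negative controls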
Sa growth 42C second temp – recorded beside Sa growth 42C, whose call it bears; relative growth, %; measured here: growth at 30 °C;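 optical density after 20 h as mean of two plates; 100% = untreated growth and lower means inhibition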
An asterisk follows results filed as active.

The opening two entries (preview)
NC(=O)COC(=O)c1cc2c(s1)CCC2 was read as HCMV NEC inh -39, Sa growth 42C 88 and Sa growth 42C second temp 78.
For O=C(NCC12CC3CC(CC(C3)C1)C2)c1ccccc1 the results were GIV Gai3 FP 101, Sa growth 42C 108 and Sa growth 42C second temp 90.

All compounds of this part, repeating the preview:
NC(=O)COC(=O)c1cc2c(s1)CCC2 was read as HCMV NEC inh -39, Sa growth 42C 88 and Sa growth 42C second temp 78.
For O=C(NCC12CC3CC(CC(C3)C1)C2)c1ccccc1 the results were GIV Gai3 FP 101, Sa growth 42C 108 and Sa growth 42C second temp 90.
Cc1ccc(CN(Cc2ccco2)C(=O)c2ccccc2Cl)o1 was read as GIV Gai3 FP 102, HCMV NEC inh -10, Sa growth 42C 101 and Sa growth 42C second temp 80.
For COc1ccc2c(c1)nc(CN1CCCC1)n2C the results were GIV Gai3 FP 109 and HCMV NEC inh -7.
COc1ccccc1CNC(=O)C1CCCN(c2nnc(-n3c(C)ccc3C)s2)C1 (stereo not given) was read as GIV Gai3 FP 104, HCMV NEC inh 0, Sa growth 42C 104 and Sa growth 42C second temp 91.
O=C(CCC1CCCC1)NCc1ccc2c(c1)N(C(=O)c1ccccc1)CC2 was read as GIV Gai3 FP 105 and HCMV NEC inh 8.
CCc1ccc(Nc2ncc3c(n2)CC(C)CC3=O)cc1 (stereo not given) was read as GIV Gai3 FP 102, HCMV NEC inh -26, Sa growth 42C 87 and Sa growth 42C second temp 90.
Screening Oc1ccc(C2CNCc3sccc32)cc1O (stereo not given) returned GIV Gai3 FP 106 and HCMV NEC inh -35.
For CCOc1ccccc1NC(=O)C1CCN(S(=O)(=O)c2cc(Br)cc3c2N(C(C)=O)CC3)CC1 the results were GIV Gai3 FP 103, HCMV NEC inh -7, Sa growth 42C 90 and Sa growth 42C second temp 85.
For Cc1cccc(N2CCN(C(=O)CCNS(=O)(=O)c3ccc4c(c3)CCN4C(=O)C3CC3)CC2)c1C the results were GIV Gai3 FP 97, Sa growth 42C 116 and Sa growth 42C second temp 99.
`CC1CCc2c(sc3nc(-c4ccco4)oc(=O)c23)C1` (stereo not given) gave GIV Gai3 FP 104 and HCMV NEC inh 1.
For CCC(C)c1ccc(NC(=O)c2ccc(N(CC)CC)cc2)cc1 (stereo not given) the results were HCMV NEC inh 1, Sa growth 42C 85 and Sa growth 42C second temp 125.
`COc1ccc(CCNC(=O)c2ccc(CSCc3ccc(C)cc3)o2)cc1OC` gave GIV Gai3 FP 98, Sa growth 42C 116 and Sa growth 42C second temp 54.
`N=C1S/C(=C/c2ccco2)C(=O)N1c1nccs1` gave HCMV NEC inh -29, Sa growth 42C 37 and Sa growth 42C second temp 8.
For Cc1cccc(-c2nnn3c2nc(NCCc2ccc(S(N)(=O)=O)cc2)c2cc(Cl)ccc23)c1 the results were GIV Gai3 FP 104, HCMV NEC inh -16, Sa growth 42C 110 and Sa growth 42C second temp 89.
`N#CCn1cnc2c(cnn2-c2ccccc2)c1=O` gave GIV Gai3 FP 98, Sa growth 42C 100 and Sa growth 42C second temp 81.
O=S(=O)(c1ccc(NC(=S)N2CCCC2)cc1)N1CCCCC1 was read as GIV Gai3 FP 103, HCMV NEC inh -46, Sa growth 42C 92 and Sa growth 42C second temp 89.
For CCOC(=O)C1=C(CN2CCC(C)CC2)NC(=O)NC1c1ccc(C)cc1 (stereo not given) the results were GIV Gai3 FP 117 and HCMV NEC inh -16.
`Cc1cc(Br)ccc1NC(=O)C1CC(O)CN1C(=O)OCc1ccccc1` (stereo not given) gave GIV Gai3 FP 91, HCMV NEC inh -16, Sa growth 42C 106 and Sa growth 42C second temp 107.
`CCOC(=O)c1ccccc1NC(=O)CC(C)CC(=O)O` (stereo not given) gave GIV Gai3 FP 100, HCMV NEC inh -9, Sa growth 42C 91 and Sa growth 42C second temp 88.
`CC(=N/Nc1nnc(C)n1N)/C(C)=N/Nc1nnc(C)n1N` gave GIV Gai3 FP 103, HCMV NEC inh -17, Sa growth 42C 105 and Sa growth 42C second temp 96.
COc1ccc(CCNC(=O)CSc2nncn2C)cc1 was read as HCMV NEC inh 1, Sa growth 42C 100 and Sa growth 42C second temp 85.
For CCc1ccccc1NC(=O)C1=CC(c2cccc(OC)c2)=NS(=O)(=O)N1C the results were GIV Gai3 FP 101, Sa growth 42C 74 and Sa growth 42C second temp 70.
CCN(CC)C(=O)Cn1c(C)c(C#N)c2ccccc21 was read as GIV Gai3 FP 106, HCMV NEC inh -2, Sa growth 42C 89 and Sa growth 42C second temp 72.

A draw from above in order of length of the SMILES, falling.
For CCOC(=O)C1=C(CN2CCC(C)CC2)NC(=O)NC1c1ccc(C)cc1 (stereo not given) the results were GIV Gai3 FP 117 and HCMV NEC inh -16.
`Cc1cc(Br)ccc1NC(=O)C1CC(O)CN1C(=O)OCc1ccccc1` (stereo not given) gave GIV Gai3 FP 91, HCMV NEC inh -16, Sa growth 42C 106 and Sa growth 42C second temp 107.
COc1ccc(CCNC(=O)CSc2nncn2C)cc1 was read as HCMV NEC inh 1, Sa growth 42C 100 and Sa growth 42C second temp 85.

More entries follow.
For CCn1c(=O)c2cc(C(=O)N(CC(C)C)CC(C)C)sc2c2ccccc21 the results were GIV Gai3 FP 103, HCMV NEC inh -2, Sa growth 42C 105 and Sa growth 42C second temp 91.
CCC1Oc2ccc(C)cc2N(CC(=O)NCCCN2CCN(c3ccccc3F)CC2)C1=O (stereo not given) was read as GIV Gai3 FP 101, Sa growth 42C 110 and Sa growth 42C second temp 76.
`S=C(NCc1ccc2c(c1)OCO2)N(Cc1ccco1)Cc1cccs1` gave HCMV NEC inh -12, Sa growth 42C 103 and Sa growth 42C second temp 81.
`Oc1ccc(C(=S)N2CCCCCC2)cc1` gave GIV Gai3 FP 98, HCMV NEC inh 5, Sa growth 42C 120 and Sa growth 42C second temp 92.
For Cc1sc2nc(CN3CCN(C(=O)c4ccco4)CC3)n(C(=O)c3ccco3)c(=O)c2c1C the results were GIV Gai3 FP 102, HCMV NEC inh -7, Sa growth 42C 99 and Sa growth 42C second temp 81.
Screening C=CCn1c(NC(=O)COc2ccccc2)nc2ccccc21 returned GIV Gai3 FP 100, HCMV NEC inh 14, Sa growth 42C 71 and Sa growth 42C second temp 33.
For Cc1cccc(NC(=O)CN2NS(=O)(=O)c3ccccc3C2=O)c1 the results were HCMV NEC inh -4, Sa growth 42C 99 and Sa growth 42C second temp 90.
Screening N#Cc1nccnc1S(=O)(=O)CCO returned GIV Gai3 FP 95, HCMV NEC inh -52, Sa growth 42C 91 and Sa growth 42C second temp 99.
For CCCCc1ccc(C(=O)Nc2ccc(Cl)c3c2C(=O)c2ccccc2C3=O)cc1 the results were GIV Gai3 FP 109 and HCMV NEC inh 6.
CC(C)N(Cc1nc(-c2ccccc2)no1)C(=O)COc1ccccc1 was read as GIV Gai3 FP 110, HCMV NEC inh 5, Sa growth 42C 135 and Sa growth 42C second temp 93.
Screening COC(=O)c1cc(S(=O)(=O)N(C)Cc2ccccc2)c[nH]1 returned GIV Gai3 FP 98, HCMV NEC inh -18, Sa growth 42C 100 and Sa growth 42C second temp 84.
Screening COc1ccc2c(c1)c(-n1cccc1)c1n2CC(C)(C(=O)NC2CCCCC2)N(C2CCCC2)C1=O (stereo not given) returned GIV Gai3 FP 105 and HCMV NEC inh -19.
Clc1ccc(N2CCCCCCC2)nn1 was read as GIV Gai3 FP 104, Sa growth 42C 84 and Sa growth 42C second temp 92.
For CCC1C(=NO)C(CC)C(c2ccccc2)NC1c1ccccc1 (stereo not given) the results were GIV Gai3 FP 99, Sa growth 42C 110 and Sa growth 42C second temp 72.
For Cn1cccc1Cc1nnc(SCC(=O)Nc2ccc3c(c2)OCO3)n1-c1ccc(F)cc1 the results were GIV Gai3 FP 100, Sa growth 42C 90 and Sa growth 42C second temp 93.
`N#CCC(=O)c1nsc(Cl)c1Cl` gave HCMV NEC inh -13, Sa growth 42C 127 and Sa growth 42C second temp 41.
`COc1ccc(COC(=O)C2=C(C)NC(=O)NC2c2cccc(Oc3ccccc3)c2)cc1` (stereo not given) gave GIV Gai3 FP 107 and HCMV NEC inh 7.
`CCCC(O)c1nc2ccccc2n1CCOc1cccc(C)c1` (stereo not given) gave GIV Gai3 FP 101 and HCMV NEC inh -16.
`CCc1ccc(OCc2nc(-c3ccc(-n4cccc4)cc3)no2)cc1` gave GIV Gai3 FP 107, HCMV NEC inh 4, Sa growth 42C 102 and Sa growth 42C second temp 93.
`CCOC(=O)C1CCCN(C(=O)Cn2c(=O)c3ccccc3n3c(=S)sc(-c4cccc(F)c4)c23)C1` (stereo not given) gave GIV Gai3 FP 77* and HCMV NEC inh -36.
`COC(=O)c1cc2c(C)nn(Cc3ccccc3Cl)c2s1` gave HCMV NEC inh 0, Sa growth 42C 83 and Sa growth 42C second temp 91.
Screening O=S(=O)(c1ccc(Cl)cc1)N1CCC2(CC1)OCCO2 returned HCMV NEC inh -35, Sa growth 42C 64 and Sa growth 42C second temp 85.
For CC1CCN(C(=O)c2c[nH]c3ccccc3c2=O)CC1 the results were GIV Gai3 FP 106 and HCMV NEC inh 15.
Screening CC1CCCN(c2c(S(=O)(=O)c3ccccc3)cnc3ccc(Cl)cc23)C1 (stereo not given) returned GIV Gai3 FP 98, HCMV NEC inh 0, Sa growth 42C 90 and Sa growth 42C second temp 96.
Screening CCN(CC)S(=O)(=O)c1ccc(C(=O)N2CCN=C2SC)cc1 returned GIV Gai3 FP 106, Sa growth 42C 114 and Sa growth 42C second temp 89.
`CC(C)C(=O)Nc1sc2c(c1C(=O)OCc1nnc3n(C)c(=O)c4ccccc4n13)CCC2` gave HCMV NEC inh -11, Sa growth 42C 80 and Sa growth 42C second temp 78.
For CC(C)(C)c1ccc(C(=O)n2cc(Cl)cn2)cc1 the results were HCMV NEC inh -22, Sa growth 42C 87 and Sa growth 42C second temp 87.
`S=C(NCc1ccccc1)N/N=C/c1ccccn1` gave HCMV NEC inh -16, Sa growth 42C 43 and Sa growth 42C second temp 30.
Screening CC1CCCC(C)N1NC(=O)Cc1ccccc1 (stereo not given) returned HCMV NEC inh -12, Sa growth 42C 69 and Sa growth 42C second temp 84.
CCOc1cc(C=C2C(=O)NC(=S)NC2=O)ccc1OCc1ccccc1Cl was read as GIV Gai3 FP 105 and HCMV NEC inh -11.
`COc1ccc(CN2C(=O)c3ccccc3C2=O)cc1C(=O)OCc1nnc(-c2ccccc2)o1` gave HCMV NEC inh -1, Sa growth 42C 110 and Sa growth 42C second temp 91.
COC(=O)CN1C(=O)Cc2ccccc2C1=O was read as GIV Gai3 FP 98 and HCMV NEC inh -9.
`CCOc1ccc(S(=O)(=O)N(CC(=O)Nc2ccc3c(c2)OCO3)c2ccccc2)cc1` gave GIV Gai3 FP 103, HCMV NEC inh 8, Sa growth 42C 95 and Sa growth 42C second temp 85.
Screening Nc1cccc(-c2cnco2)c1 returned GIV Gai3 FP 105, HCMV NEC inh 4, Sa growth 42C 98 and Sa growth 42C second temp 109.
Screening COc1cc2c(c(OC)c1)C(c1cccc(F)c1F)CC(=O)N2 (stereo not given) returned GIV Gai3 FP 109, HCMV NEC inh -3, Sa growth 42C 105 and Sa growth 42C second temp 94.
CCOc1ccc(NC(=O)C2CC(=O)N(c3ccc(C(C)C)cc3)C2)cc1 (stereo not given) was read as GIV Gai3 FP 104, HCMV NEC inh -34, Sa growth 42C 86 and Sa growth 42C second temp 89.
`Cc1ccc(C(=O)N=C(N)c2cccs2)cc1` gave GIV Gai3 FP 106, HCMV NEC inh 4, Sa growth 42C 82 and Sa growth 42C second temp 58.
For CC(C)c1ccc(Cn2c(COc3ccccc3)nc3ccccc32)cc1 the results were GIV Gai3 FP 96, HCMV NEC inh -26, Sa growth 42C 97 and Sa growth 42C second temp 88.

A portion from further up, as a working copy:
Screening CCN(CC)S(=O)(=O)c1ccc(C(=O)N2CCN=C2SC)cc1 returned GIV Gai3 FP 106, Sa growth 42C 114 and Sa growth 42C second temp 89.
`CC(C)C(=O)Nc1sc2c(c1C(=O)OCc1nnc3n(C)c(=O)c4ccccc4n13)CCC2` gave HCMV NEC inh -11, Sa growth 42C 80 and Sa growth 42C second temp 78.
For CC(C)(C)c1ccc(C(=O)n2cc(Cl)cn2)cc1 the results were HCMV NEC inh -22, Sa growth 42C 87 and Sa growth 42C second temp 87.

Bioassay records (PubChem)
